From PubChem BioAssay
LANA-H2B inh – blocks KSHV LANA binding to histone H2A/H2B; Q9QR71; cell-free LANA-H2A/H2B peptide, fluorescence polarization; inhibition, % (test concentration not listed); 320,000 compounds, 0.6% hits; in the data active = inhibition mostly above about 10%, no sharp cut-off; inactive = mostly below about 6.7%;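 also: stock transfer was 7.5 nL into about 10 µL; 0% = median of vehicle wells and 100% = median of positive control wells; one replicate is shown; the record names a cut of 25% in any replicate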
B2AR ag – agonists of human beta-2 adrenergic receptor inducing internalization; 340,000 compounds, 0.43% hits; P07550; response, % (concentration not given with the values); Am2.2-beta2AR cells, FAP receptor internalization, flow cytometry; reference of the scale not given here;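 active = response above a set limit, near 3 SD of response in nonfluorescent compounds, cut at about 42% in these data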;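 also: stock transfer was 100 nL into about 11 µL; a reference agonist was the positive control; negative values mostly stem from fluorescent compounds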
Target sequence (P07550 whole entry, looked up): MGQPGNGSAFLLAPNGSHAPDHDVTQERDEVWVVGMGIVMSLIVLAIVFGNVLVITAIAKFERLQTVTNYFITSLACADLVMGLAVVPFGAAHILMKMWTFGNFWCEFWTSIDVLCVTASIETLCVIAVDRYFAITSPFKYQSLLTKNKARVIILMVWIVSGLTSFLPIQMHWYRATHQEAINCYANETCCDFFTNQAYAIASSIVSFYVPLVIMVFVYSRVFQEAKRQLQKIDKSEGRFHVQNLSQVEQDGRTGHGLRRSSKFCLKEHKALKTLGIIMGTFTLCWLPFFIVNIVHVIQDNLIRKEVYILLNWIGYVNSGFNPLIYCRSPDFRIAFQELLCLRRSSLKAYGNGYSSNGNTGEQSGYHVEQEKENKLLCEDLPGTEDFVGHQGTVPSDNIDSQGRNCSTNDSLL
T cruzi inh – blocks replication of Trypanosoma cruzi; T. cruzi beta-gal in NIH3T3, luminescence, 90 h; inhibition, % (concentration not given with the values); 300,000 compounds, 1.4% hits; AID 1885;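 active = mean inhibition across valid replicates above about 55%, limit read from the data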;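 also: signal also drops with host cell toxicity which is not excluded here; 0% = plate median of DMSO wells and 100% = zero luminescence signal; higher percent means less beta-gal luminescence so fewer parasites; stock transfer was 50 nL into about 50 µL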
Ecoli rRNA inh – inhibitors of bacterial rRNA selective over humanized ribosomes | GFP signal change (wild-type ribosome), % (no concentration beside the values) | AID 720706 | 350,000 compounds, 1.6% hits | E. coli WT GFP vs humanized-ribosome RFP mutants, fluorescence, 24 h; hits give low values; DMSO median 0, no signal -100;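 active = significant combined selectivity score with lowered wild-type GFP, culture density cut under 30%, mutant RFP and density less affected; inactive = any of these conditions unmet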; also: one replicate is shown; some compounds called inactive have numbers as strong as hits
A1 inh – inhibitors of the anti-apoptotic protein A1, read as caspase activation; MEF A1-2A-BIM cells, Caspase-Glo 3/7 luminescence, 3 h; percent of clofoctol response, vehicle zero; caspase activation, % (concentration not given with the values); 330,000 compounds, 0.066% hits;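 active = over half of replicate activation scores above 10%, or exactly half above 10 with the replicate mean above 10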;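 also: wells of about 30 µL received 50 nL stock; many hits fall short of the cut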
Beta apoptosis – blocks beta cell apoptosis | INS-1E cytokine-induced death, ATP luminescence, 48 h; percent of positive-control rescue, neutral wells zero | protection from apoptosis, % (test concentration not listed) | 300,000 compounds, 0.8% hits | AID 435005;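 active = all replicates at 75% or more, or half of them and the mean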;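 also: 0% = cytokine-treated negative control wells and 100% = positive control rescue; higher means more ATP so stronger rescue from cytokine killing; wells of about 40 µL received 100 nL stock; the first replicate is given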
Calb FLC – C. albicans growth modulation with fluconazole | growth inhibition, % (test concentration not listed) | C. albicans CaCi-2 (fluconazole-resistant clinical isolate) + fluconazole, Alamar Blue growth, 48 h | 300,000 compounds, 0.57% hits | AID 1979;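 active = most replicates above 75%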;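 also: all wells also contain fluconazole at 8 µg/ml as a sub-toxic cotreatment; 0% = median of DMSO wells and 100% = median of geldanamycin control wells; wells of about 8 µL received 7.5 nL stock; the first replicate is given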
ALR inh – blocks human ALR sulfhydryl oxidase activity; P55789; purified ALR, DTT oxidation, H2O2 HRP-luminol luminescence; inhibition, % (concentration not given with the values); 290,000 compounds, 3.8% hits;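 active = mean and each replicate at 75% or more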;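 also: stock transfer was 7.5 nL into about 7.5 µL; 0% = neutral wells and 100% = wells with inactivated enzyme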
Target sequence (P55789 whole entry, looked up): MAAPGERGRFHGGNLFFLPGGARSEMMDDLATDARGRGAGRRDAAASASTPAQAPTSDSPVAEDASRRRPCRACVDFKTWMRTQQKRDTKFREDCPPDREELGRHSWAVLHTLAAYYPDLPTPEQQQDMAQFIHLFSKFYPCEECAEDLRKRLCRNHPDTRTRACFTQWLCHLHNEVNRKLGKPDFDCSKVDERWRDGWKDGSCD
Ecoli rRNA inh OD600 – recorded beside Ecoli rRNA inh, whose call it bears; OD600 change, %; measured here: OD600 growth;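 optical density of the mix in the first replicate; 0 = DMSO median and -100 = no signal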
Ecoli rRNA inh RFP – also measured in Ecoli rRNA inh; calls as there; RFP signal change, %; measured here: RFP humanized mutant strains;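 first replicate; 0 = DMSO median and -100 = no signal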
Starred values were filed as active, the others as inactive; · = no result given.

SMILES | LANA-H2B inh | B2AR ag | T cruzi inh | Ecoli rRNA inh | Ecoli rRNA inh OD600 | Ecoli rRNA inh RFP | A1 inh | Beta apoptosis | Calb FLC | ALR inh
CC(=O)Nc1ccc(N/C=C(\C=O)c2nc3ccccc3o2)cc1 | -2.4 | -10.7 | -9.0 | 15.8 | 10.3 | 1.6 | 0.0 | 0.0 | -4.1 | -10.5
Nc1nc(NC(=O)c2ccc(F)cc2)ns1 | 0.7 | -11.2 | -13.3 | 0.5 | 3.4 | 5.2 | 0.1 | -3.3 | -0.5 | 30.4
COc1cccc(CNC(=O)CCCn2c(=S)[nH]c3cc4c(cc3c2=O)OCO4)c1 | -1.7 | -2.0 | 6.3 | -3.7 | -12.0 | -7.3 | -3.1 | 2.5 | 16.5 | -2.8
COC(=O)c1cccc(NC(=O)Nc2ccc(Cl)cc2Cl)c1 | 2.6 | 8.8 | 26.3 | -2.8 | -6.5 | 1.2 | -0.1 | 6.2 | 1.4 | 3.5
COc1ccccc1CNC(=O)COC(=O)c1cnccn1 | 3.8 | -20.8 | 5.4 | 4.0 | 5.3 | -0.7 | 0.3 | 2.5 | -0.5 | -4.0
CCCCn1c(N)c(N(CCOC)C(=O)c2cnccn2)c(=O)[nH]c1=O | 2.6 | 0.3 | -0.7 | 0.2 | 7.0 | -3.5 | -0.5 | · | -1.3 | -4.3
CC(C)OC(=O)Nc1ccc2c(c1)N(C(=O)CCN1CCN(CCO)CC1)c1ccccc1CC2 | -3.5 | 8.1 | -1.7 | 18.3 | 4.2 | -0.4 | 1.2 | 3.5 | 24.5 | -3.0
CCn1c(SCC(=O)N2CCC(C)CC2)nc2c1c(=O)n(C)c(=O)n2C | -0.3 | -0.4 | -11.0 | -0.5 | -4.2 | -1.6 | -0.2 | 9.1 | 4.0 | ·
COc1ccc(CNC[C@H]2O[C@@H](n3cnc4c(N)ncnc43)[C@H](O)[C@@H]2O)cc1OC | · | -0.1 | · | · | · | · | -0.1 | -2.2 | · | 2.8
C=CCSc1nc(=O)n2ccccc2n1 | -0.4 | 5.2 | -23.0 | 14.5 | 10.6 | -6.4 | 0.5 | 0.3 | -16.9 | -7.0
CCCc1cc(=O)[nH]c(SCC(=O)Nc2ccccc2C#N)n1 | -3.0 | 8.5 | 12.8 | · | · | · | -0.1 | -0.7 | 1.9 | ·
NNC(=O)COc1ccc(C2SCCS2)cc1 | -1.8 | 8.2 | -6.9 | 0.3 | 9.6 | -0.4 | 1.4 | -3.3 | -28.5 | 89.6*
Cc1ccccc1C(=O)NNC(=O)c1ccncc1 | -9.1 | 6.2 | -14.9 | 10.7 | 13.7 | 2.4 | 0.8 | -7.2 | 3.2 | 1.2
Cc1ccc(Nc2nc(N)c([N+](=O)[O-])c(NCc3ccco3)n2)cc1C | -0.1 | -3.4 | 25.9 | · | · | · | -0.6 | 7.0 | -4.9 | 3.3
CCc1ccc(NC(=O)CCC(=O)Nc2nnc(C(C)C)s2)cc1 | -5.4 | -11.0 | -6.6 | -0.1 | -1.0 | 1.1 | -0.9 | -2.5 | -10.6 | 2.9
CSc1ccccc1NC(=O)Cc1ccccc1 | -0.4 | -6.2 | -17.0 | -1.3 | 13.3 | -2.6 | 0.2 | -4.2 | 4.4 | -1.5
Cc1cc(C)cc(C(=O)Nc2nnc(SCC(=O)N3CCCc4ccccc43)s2)c1 | -2.1 | -13.8 | -9.8 | -12.7 | -13.5 | 3.9 | 0.4 | -9.7 | -6.1 | -20.6
CO/N=C(\c1ccccc1)c1cccnc1 | -1.9 | 1.8 | -2.9 | 3.5 | 4.4 | 0.5 | 0.6 | -8.6 | 23.3 | -3.5
CSc1ccc(CNC(=O)C2CCC(=O)N(Cc3cccc(F)c3)C2)cc1 (stereo unspecified) | -3.4 | -7.2 | -26.1 | 3.2 | 10.3 | 4.1 | 1.2 | -5.2 | -9.3 | -6.3
COc1cc(C(=O)N2CCC(N3CCCCCC3)CC2)cc(OC)c1OC | -2.5 | 5.0 | 12.2 | · | · | · | -0.7 | -9.6 | -6.8 | -20.5

Rewritten as tab-separated lines: part of the list above.
Molecule	LANA-H2B inh	B2AR ag	T cruzi inh	Ecoli rRNA inh	Ecoli rRNA inh OD600	Ecoli rRNA inh RFP	A1 inh	Beta apoptosis	Calb FLC	ALR inh
Cc1ccccc1C(=O)NNC(=O)c1ccncc1	-9.1	6.2	-14.9	10.7	13.7	2.4	0.8	-7.2	3.2	1.2
CCn1c(SCC(=O)N2CCC(C)CC2)nc2c1c(=O)n(C)c(=O)n2C	-0.3	-0.4	-11.0	-0.5	-4.2	-1.6	-0.2	9.1	4.0	·

3 entries from above, ordered by their value in B2AR ag, highest first:
compound	B2AR ag
Cc1ccccc1C(=O)NNC(=O)c1ccncc1	6.2
CSc1ccccc1NC(=O)Cc1ccccc1	-6.2
CC(=O)Nc1ccc(N/C=C(\C=O)c2nc3ccccc3o2)cc1	-10.7

New compounds follow:
SMILES | LANA-H2B inh | B2AR ag | T cruzi inh | Ecoli rRNA inh | Ecoli rRNA inh OD600 | Ecoli rRNA inh RFP | A1 inh | Beta apoptosis | Calb FLC | ALR inh
COCCCn1c(SCC(=O)Nc2sc3c(c2C#N)CCCC3)nnc1-c1ccncc1 | 1.4 | 0.5 | -4.8 | -15.9 | -2.0 | 15.0 | 0.6 | 5.1 | 14.1 | 7.2
Cc1ccc(NC(=O)CSc2ccc(-c3ccco3)nn2)cc1 | 0.0 | -7.1 | -5.3 | -16.4 | -18.5 | 0.6 | 0.8 | -5.3 | -6.4 | ·
COc1ccc(CCNC(=O)c2nonc2N)cc1 | 2.1 | 1.6 | 0.6 | · | · | · | -0.9 | -9.2 | -4.2 | -0.3
O=C1C=C(c2cccc(Cl)c2)C[C@@H](c2ccc3c(c2)OCO3)C1 | 2.2 | 6.6 | · | -8.8 | -15.9 | -20.4 | 0.5 | -0.5 | · | 1.9
COc1cccc(/C=N/NC(=O)c2cccc(N3CCCC3=O)c2)c1 | -4.7 | 19.8 | -7.2 | 11.2 | 1.2 | -2.1 | -2.9 | 7.8 | 7.9 | -3.3
COc1ccccc1NC(=O)Nc1ccccc1SC | -4.9 | -10.1 | 10.4 | 1.9 | 0.8 | -1.0 | -0.6 | 1.4 | 1.0 | -2.7
Cc1ccc2c(c1)c1c(n2C)-c2[nH]ncc2CC1 | -0.8 | -1.1 | 12.7 | · | · | · | 0.8 | 2.6 | 51.9 | 93.8*
CCc1cccc2c(SC(C)C(=O)NCC3CCCO3)nc(-c3ccccc3)nc12 (stereo unspecified) | -0.6 | 4.6 | 3.2 | · | · | · | 0.3 | 4.5 | -4.1 | -7.1
Cc1cc(C)c(C)c(OCCCCN(C)Cc2ccccc2)c1 | -4.6 | 5.8 | 31.3 | -26.0 | -38.5 | -2.0 | -0.4 | · | 0.8 | -1.6
CCOc1cc(C=O)cc(Br)c1OCC(=O)NCCc1ccccc1 | 0.9 | 5.3 | 10.3 | -11.1 | -14.9 | -1.3 | 0.0 | -3.6 | -27.9 | 2.1
CCOc1ccccc1NC(=O)c1cccc(NC(=O)c2ccco2)c1 | 0.0 | 0.1 | -0.5 | · | · | · | 1.6 | 17.4 | 3.6 | 1.2
CN1CCC(N(C)S(=O)(=O)c2ccc(NC(=O)COc3ccc(Cl)cc3)cc2)CC1 | 1.6 | 8.0 | · | -13.9 | -10.1 | -3.0 | -0.2 | 4.2 | · | -9.0
c1ccc(-c2ccccc2OCCOCCN2CCOCC2)cc1 | 4.8 | -1.5 | -9.3 | 6.5 | 2.5 | 0.2 | 0.6 | 0.6 | -13.3 | -8.6
CCNC(=S)NNC(=O)c1csc(C(C)C)c1 | -3.1 | -5.2 | -6.6 | · | · | · | -0.8 | 2.3 | 20.0 | 6.9
CC(C)c1ccc(S(=O)(=O)N2CCN(C(=O)C3CC3C)CC2)cc1 (stereo unspecified) | 0.4 | -4.0 | 0.0 | -3.2 | -19.3 | -3.8 | -0.4 | 4.2 | -3.9 | -1.8
OCCNCc1cccc(Br)c1 | 1.0 | 0.0 | -13.5 | 21.6 | 14.3 | 0.6 | 0.2 | 1.2 | -8.7 | -6.4
COC(=O)C(NC(=O)CCc1nnc2ccc(N3CCCCC3)nn12)C(C)C (stereo unspecified) | -4.0 | 2.1 | 12.4 | 2.0 | 12.6 | -0.3 | 0.7 | -2.2 | -5.3 | -1.9
COCCCN(C(=O)Cn1ncc2c(=O)oc3ccc(C)cc3c21)C(C)c1ccncc1 (stereo unspecified) | -4.1 | -4.4 | 5.6 | -0.9 | 1.3 | -1.2 | -0.1 | -2.8 | -3.6 | -8.9
Cc1n[nH]c(C)c1CCNC(=O)C1CCC(=O)N(CCc2cccc(F)c2)C1 (stereo unspecified) | 0.4 | 6.2 | -16.5 | 9.4 | 24.4 | 2.1 | 0.8 | -0.9 | -2.1 | 4.8
COc1ccc(NC(=O)c2ccc3c(c2)C(=O)N(CC2CCCO2)C3=O)cc1O (stereo unspecified) | -4.1 | -0.3 | -4.4 | 7.1 | -0.2 | -2.4 | 0.2 | 2.9 | -5.9 | -4.0

Full records as entered above. Order of screens: LANA-H2B inh, B2AR ag, T cruzi inh, Ecoli rRNA inh, Ecoli rRNA inh OD600, Ecoli rRNA inh RFP, A1 inh, Beta apoptosis, Calb FLC, ALR inh
Listed for COc1ccc(CCNC(=O)c2nonc2N)cc1 = 2.1, 1.6, 0.6, ·, ·, ·, -0.9, -9.2, -4.2, -0.3
Listed for C=CCSc1nc(=O)n2ccccc2n1 = -0.4, 5.2, -23.0, 14.5, 10.6, -6.4, 0.5, 0.3, -16.9, -7.0
Listed for COc1cccc(/C=N/NC(=O)c2cccc(N3CCCC3=O)c2)c1 = -4.7, 19.8, -7.2, 11.2, 1.2, -2.1, -2.9, 7.8, 7.9, -3.3
Listed for CCc1ccc(NC(=O)CCC(=O)Nc2nnc(C(C)C)s2)cc1 = -5.4, -11.0, -6.6, -0.1, -1.0, 1.1, -0.9, -2.5, -10.6, 2.9
Listed for CSc1ccc(CNC(=O)C2CCC(=O)N(Cc3cccc(F)c3)C2)cc1 (stereo unspecified) = -3.4, -7.2, -26.1, 3.2, 10.3, 4.1, 1.2, -5.2, -9.3, -6.3

More records follow:
SMILES | LANA-H2B inh | B2AR ag | T cruzi inh | Ecoli rRNA inh | Ecoli rRNA inh OD600 | Ecoli rRNA inh RFP | A1 inh | Beta apoptosis | Calb FLC | ALR inh
O=C1CC(c2ccc(S(=O)(=O)N3CCCCC3)cc2)CN1 (stereo unspecified) | 0.4 | 1.1 | -0.9 | · | · | · | 0.3 | 0.7 | -11.7 | -16.3
CC1(C)CC(=O)C(C=NCCO)=C(O)C1 | 1.4 | 11.8 | 2.8 | · | · | · | 0.6 | · | -8.3 | 0.5
CCOC(=O)NCc1ccc2[nH]c(C)cc2c1 | 5.0 | 0.6 | -3.2 | 1.8 | 3.6 | 5.7 | 0.6 | 0.3 | -6.1 | ·
CC(=O)Nc1ccc(C=NNc2ccc([N+](=O)[O-])cc2S(=O)(=O)Nc2ccccc2C(=O)O)cc1 | -3.3 | 1.1 | · | -5.9 | -0.2 | 0.0 | 0.5 | -3.0 | · | 65.5

An excerpt. The share of hits here may be higher or lower than overall.
